# Assay outcomes: PubChem, National Center for Advancing Translational Sciences (NCATS)
# HPGD inh – inhibitors of human 15-hydroxyprostaglandin dehydrogenase (HPGD) | P15428 | purified HPGD, NADH fluorescence kinetic, PGE2 substrate | Potency, µM, for the others: at the top dose activity change, negative = inhibition, usual class: inhibitors | hit rate 4.3% among 150,000 | AID 894; active = well fitted inhibition curve with a large enough effect (not every such curve was filed as active); inconclusive = small, poorly fitted or top-dose-only effect, or another doubt; inactive = no such curve, though single readings can be large or run the other way;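 also: top concentration of the series not given in the record; plate controls included wells without enzyme; inactives centre near -10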
# Target sequence (P15428 whole entry, looked up): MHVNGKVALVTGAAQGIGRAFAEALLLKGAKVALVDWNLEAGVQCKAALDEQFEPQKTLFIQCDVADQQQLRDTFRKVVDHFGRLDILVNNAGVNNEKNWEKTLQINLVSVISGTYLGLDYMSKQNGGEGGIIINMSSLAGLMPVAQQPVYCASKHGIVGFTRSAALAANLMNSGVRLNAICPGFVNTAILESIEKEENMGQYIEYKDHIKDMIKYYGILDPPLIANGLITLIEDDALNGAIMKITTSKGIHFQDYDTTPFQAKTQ
#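 20 nM HPGD preincubated 15 min at room temperature with compound in 50 mM Tris-HCl pH 8, 0.01% Tween 20. Started with 1 mM NAD+ and 30 uM prostaglandin E2; NADH fluorescence (360/450 nm) read 5 times over 30-s intervals, last minus first.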
# The depositor's hits bear a star; ? = inconclusive; & = joins results of further samples. % is scaled to controls: 0 for no effect and ±100 for the full control effect; potency is read from the fitted curve at half-maximal effect.
HPGD inh	SMILES
1%	COc1ccc(S(=O)(=O)Nc2cc3c4c(oc3c3ccccc23)CCCC4=O)cc1
18µM*	CCOC(=O)Cc1csc(SCC(=O)Nc2sc3c(c2C(N)=O)CCC3)n1
3%	COC(=O)C1=C(C)N(Cc2ccco2)C(=O)N[C@@H]1c1ccc(Br)cc1
-9%	COc1ccc(NC(=O)c2cnc3n(c2=O)CCS3)cc1OC
-7%	CCC1CCc2sc(C(=O)O)cc2C1 (configuration not stated)
-14%	COc1ccc(Oc2nccc(-c3ccc(Cl)cc3)n2)cc1
-10%	Cn1c(Cc2csc(N)n2)nnc1SCC(=O)NCc1ccccc1
-16%	Cc1cc(S(=O)(=O)NCC(c2ccccc2)c2ccccc2)ccc1-n1cnnn1
3.5µM*	CCc1c(C)nc(SCC(=O)Nc2cccc(Br)c2)[nH]c1=O
-19%	COc1cc(SC)ccc1C(=O)NCCOc1ccccc1Cl
?	N#CC(C(=O)NCc1ccccc1)c1nc2ccccc2nc1N1CCCC1 (configuration not stated)
-14%	CCOc1ccc(CCNC(=O)C2CCN(c3nn4c(=O)cc(C)nc4s3)CC2)cc1OCC
-6%	CC(C)CNC(=O)COc1ccc(Sc2ccc(OCC(=O)NCC(C)C)cc2)cc1
6%&-8%	CC12CCC(C(=O)O)(C/C1=N\O)C2(C)C (configuration not stated)
-18%	CC(C)OP(=O)(c1ccc(N(C)C)cc1)C(O)c1ccncc1 (configuration not stated)
-21%	Cn1c(=O)c(C(=O)c2ccccc2)nc2ccccc21
-10%	CN1CCN(CC(=O)Nc2ccccc2[N+](=O)[O-])CC1
-12%	O=C1CCC(C(=O)NCCCn2ccnc2)N1 (configuration not stated)
-9%	Cc1cc(=O)[nH]c(SCC(=O)N2c3ccccc3CC2C)n1 (configuration not stated)
0%	COc1ccc(CC(=O)NCc2nnc(SCCOc3ccccc3)n2C)cc1
18µM*	S=c1[nH]nc(C2CCCCC2)n1/N=C/C=C/c1ccccc1
22µM*	CCn1c(COc2ccc3c(c2)OCO3)nnc1SCC(=O)c1ccccc1
5%	C=CCNC(=O)c1cccn1-c1ccsc1C(=O)OC
?	COc1ccc(NC(=O)c2cc(-c3cccs3)on2)cc1OC
-10%	c1ccc2c(-n3cnnn3)cccc2c1
-5%	CS(=O)(=O)N(Cc1ccc(Cl)cc1)c1ccc(C(=O)NCCSCc2ccco2)cc1
2%	CCc1nnc(NC(=O)CSc2nccn2-c2cc(C)cc(C)c2)s1
-12%	Cc1ccc(NC(=O)CN2CCCN(S(=O)(=O)c3ccc(Br)s3)CC2)cc1
?	Cc1ccc(S(=O)(=O)Nc2ccc3oc(=O)sc3c2)c(C)c1
-22%	O=C(O)C1CCCCC1C(=O)Nc1cccc(C(=O)N2CCCCC2)c1 (configuration not stated)
14µM*	CCOC(=O)c1ccc(NC(=S)NCCC2=CCCCC2)cc1
-14%	CCCCCCCCCCCCCCCC[n+]1cccc2ccccc21
-6%	Cc1cc(CSc2ccccc2)ccc1NC(=O)c1ccc(CN2CCOCC2)cc1
-11%	COc1ccc(Cn2c(=O)[nH]c3cc(C(=O)NCCCN4CCCCC4)ccc3c2=O)cc1
-16%	O=C(Nc1ccccc1)c1cc2ccccc2o1
-21%	Cc1nc(C(F)(F)F)nc(Nc2ccc(Br)cc2)c1C#N
-25%	CC1(C)NC(=O)N(CCOCCOc2ccc3ccccc3c2Br)C1=O
?	COc1ccc(N2C(=O)c3ccccc3NC23CCC(C)CC3)cc1 (configuration not stated)
-12%	CCCC(=O)Nc1ccc2nc(SCC(=O)Nc3nccs3)sc2c1
-5%	CCSC1=C(C#N)C(c2ccc(F)cc2)CC(=O)N1 (configuration not stated)
?	COc1ccc(NC(=O)COC(=O)c2cc(OC)c(OC)cc2NC(=O)c2ccco2)cc1OC
?	COc1cc(/C=N/O)c(Br)cc1OCC(=O)Nc1ccccc1C
-27%	COc1ccc(Nc2nc3ccccc3n3cnnc23)cc1
-18%	S=C(NC1CCCCC1)N1CCN(c2ccccn2)CC1
-14%	Cc1ccc(C2=C/C(=C/c3cccnc3)C(=O)O2)c(C)c1
-14%	CCS(=O)(=O)n1nc(-c2ccc(Cl)cc2)nc1N
-2%	Cn1c(=O)c2cc(S(=O)(=O)Nc3cccc(F)c3)ccc2n(C)c1=O
-27%	O=C(NCc1ccco1)C1CCN(c2nnc(-n3cccc3)s2)CC1
-15%	NS(=O)(=O)c1cccc(NC(=O)CSc2nn(-c3ccccc3)c(=S)s2)c1
-30%	COc1cc(NC(=S)NCc2ccc(S(N)(=O)=O)cc2)c(OC)cc1Cl

# For reference, part of the list above.
HPGD inh	SMILES
-6%	Cc1cc(CSc2ccccc2)ccc1NC(=O)c1ccc(CN2CCOCC2)cc1
-11%	COc1ccc(Cn2c(=O)[nH]c3cc(C(=O)NCCCN4CCCCC4)ccc3c2=O)cc1
-16%	O=C(Nc1ccccc1)c1cc2ccccc2o1
-21%	Cc1nc(C(F)(F)F)nc(Nc2ccc(Br)cc2)c1C#N
-25%	CC1(C)NC(=O)N(CCOCCOc2ccc3ccccc3c2Br)C1=O
?	COc1ccc(N2C(=O)c3ccccc3NC23CCC(C)CC3)cc1 (configuration not stated)
-12%	CCCC(=O)Nc1ccc2nc(SCC(=O)Nc3nccs3)sc2c1
-5%	CCSC1=C(C#N)C(c2ccc(F)cc2)CC(=O)N1 (configuration not stated)
?	COc1ccc(NC(=O)COC(=O)c2cc(OC)c(OC)cc2NC(=O)c2ccco2)cc1OC
?	COc1cc(/C=N/O)c(Br)cc1OCC(=O)Nc1ccccc1C
-27%	COc1ccc(Nc2nc3ccccc3n3cnnc23)cc1
-18%	S=C(NC1CCCCC1)N1CCN(c2ccccn2)CC1
-14%	Cc1ccc(C2=C/C(=C/c3cccnc3)C(=O)O2)c(C)c1
-14%	CCS(=O)(=O)n1nc(-c2ccc(Cl)cc2)nc1N
-2%	Cn1c(=O)c2cc(S(=O)(=O)Nc3cccc(F)c3)ccc2n(C)c1=O
-27%	O=C(NCc1ccco1)C1CCN(c2nnc(-n3cccc3)s2)CC1
-15%	NS(=O)(=O)c1cccc(NC(=O)CSc2nn(-c3ccccc3)c(=S)s2)c1
-30%	COc1cc(NC(=S)NCc2ccc(S(N)(=O)=O)cc2)c(OC)cc1Cl

# The list continues:
HPGD inh	SMILES
-11%	Cc1cc(OCC(=O)Nc2ccc(OCc3ccccc3)cc2)nc(C(C)C)n1
32µM*	CCOC(=O)C1(C)/C(=N/Nc2cccc(Cl)c2)C(=O)C(=O)N1c1ccccc1 (configuration not stated)
-8%	CNC(=O)N(O)C1N(C)C(=O)N(Cc2ccccc2)C1(C)C (configuration not stated)
-12%	CCC(C)(C)n1nnnc1CN1CCN(C(c2ccccc2)c2ccccc2)CC1
-11%	Cc1cc(C)c(C#N)c(N2CCN(Cc3ccccc3)CC2)n1
-18%	O=C(COn1nnc2ccc(Cl)cc21)NCc1ccccc1
-4%	COc1cc2c(cc1OC)C(Cc1ccc(O)cc1)NCC2 (configuration not stated)
-2%	CCNc1nc(NC(C)CC)nc(Oc2ccc(=O)[nH]n2)n1 (configuration not stated)
3%	CC(NC(=O)c1cccc(N2CCCC2=O)c1)c1ccc2c(c1)OCCO2 (configuration not stated)
-24%	COc1cccc(N2CCN(c3ncnc4c3[nH]c3ccccc34)CC2C)c1 (configuration not stated)
-2%	N#CCCN(CC(=O)O)S(=O)(=O)c1ccccc1
-22%	CCN(CC)S(=O)(=O)c1ccc(C(=O)OCC(=O)Nc2sc3c(c2C#N)CCCCC3)cc1
-6%	CC1(c2ccc(OC(F)F)cc2)NC(=O)N(CC(=O)NC2CCCCC2)C1=O (configuration not stated)
?	O=C(Nc1ccc(Nc2ccccc2)cc1)N1CCOCC1
-11%	COC(=O)C1C2C=CC3(CN(C(C)c4ccc(OC)cc4)C(=O)C13)O2 (configuration not stated)
-10%	COc1ccc(N(CC(=O)N2CCc3ccccc3C2)S(=O)(=O)c2c(C)nn(C)c2C)cc1
?	CNC(=O)c1ccsc1NC(=O)c1ccc(S(=O)(=O)N2CCCc3ccccc32)cc1
-9%	Cc1ccc(CNC(=O)CNS(=O)(=O)c2cccc3nsnc23)cc1
-8%	Cc1cc(NC(=O)c2ccco2)ncc1NC(=O)Cc1ccccc1
-23%	N#C/C(=C\c1ccc(Cl)cc1)c1nc2ncccc2[nH]1
-12%	O=C(c1cccnc1Nc1ccc2c(c1)CCC2)N1CCOCC1
-6%	CC/C(O)=C1\C(=O)CC(c2ccccc2)CC1=NCCc1c(C)[nH]c2ccc(C)cc12 (configuration not stated)
-22%	CCOC(=O)/C(C#N)=C/c1c(Oc2cc(C)cc(C)c2)nc2ccccn2c1=O
-17%	CCOc1ccc(C2N(c3cc(Cl)ccc3OC)C(=O)C3CCCN32)cc1OC (configuration not stated)
-27%	CC1(C)CSC(=S)N1S(=O)(=O)c1ccccc1
-19%	CN(C1CCCCC1)S(=O)(=O)c1ccc(C(=O)O)cc1
-1%	CCN(CC)CCNC(=O)CCc1n[nH]c(=O)c2ccccc12
0%	CCSc1nnc(NC(=O)COc2ccccc2)s1
-13%	CCNS(=O)(=O)c1ccc2nc(NC(=O)c3cccnc3)sc2c1
0.71µM*	O=C(NC(=S)Nc1ccc(C(=O)N2CCOCC2)cc1)c1ccc([N+](=O)[O-])cc1
-9%	COc1ccc(/C=C2/CC/C(=C\c3ccc(OC)c(OC)c3OC)C2=O)c(OC)c1OC
?	COCC(=O)Nc1nc2n(n1)C(c1ccc(Cl)cc1)CC(c1ccc(OC)cc1)N2 (configuration not stated)
0%	COc1ccc(-c2nc3c(c(=O)c4ccccc4n3C)c(=O)n2Cc2ccccc2)cc1
-10%	COC(=O)CN1C(C)=Nc2ccc(Br)cc2C1c1ccccc1 (configuration not stated)
-23%	O=C1CCCC2=C1C1c3ccccc3C(=O)N1c1ccc(C(=O)c3ccccc3)cc1N2 (configuration not stated)
-1%	Cc1ccc2oc(=O)c3cnn(CC(=O)NC4CCC(C)CC4)c3c2c1 (configuration not stated)
-8%	COc1ccc2nc(NC(=O)Cc3cccs3)sc2c1
-8%	C[C@]12CC[C@@H]3c4ccc(OS(=O)(=O)O)cc4CC[C@H]3[C@@H]1CCC2=O
-15%	O=C1CCCC(O)=C1N=Nc1ccc2c(c1)OCO2
-10%	N/C(=N\OC(=O)CC1CCCCC1)c1cccc([N+](=O)[O-])c1
32µM*	CCC1CCc2c(sc(NC(=O)C3CC=CCC3C(=O)O)c2C#N)C1 (configuration not stated)
6%	COc1cc(OC)c(CN2CCCCCCC2)cc1Br
1%	CCCCNC(=S)NNC(=O)c1csc(CC)c1
0%	COc1ccc(-n2c(Cc3cccn3C)nnc2SCC(=O)Nc2nccs2)cc1
-11%	C=CCNCc1cccn1-c1ccccc1
-7%	CCOc1ccc(NC(=O)CN2CC(c3ccccc3)CC2=O)cc1 (configuration not stated)
-13%	c1c2c(cc3sc(N4CCOCC4)nc13)OCCO2
-22%	CC(=O)C1=C(O)C(=O)N(CCCn2ccnc2)C1c1ccc(C)cc1 (configuration not stated)
7.1µM*	O=C(CCCn1c(=S)[nH]c2ccc(Br)cc2c1=O)NCC1CCCO1 (configuration not stated)
-35%	COC(=O)N1CC=CC1(C)C(=O)NCc1ccc(C)o1 (configuration not stated)

# Later entries
HPGD inh	SMILES
1%	CCC1CCCCN1C(=O)c1cccc(S(=O)(=O)Nc2cc(C(F)(F)F)ccc2Cl)c1 (configuration not stated)
?	COc1cc(NC(=S)NC(=O)c2ccccc2C)ccc1NC(=O)c1cccs1
-1%	Cn1cc(S(=O)(=O)N2CCN(c3ccccc3)CC2)c(=O)n(C)c1=O
-13%	O=C(NNc1cccc(Cl)n1)Nc1ccccc1Cl
-15%	c1ccc(Cn2nnc3c(NCc4ccc5c(c4)OCO5)nc(C4CC4)nc32)cc1
-11%	COc1ccc(Cl)cc1N1C(=O)C2CCCN2C1c1cccc(F)c1 (configuration not stated)
-4%	C=CCc1cccc(CNc2c(C)n(C)n(-c3ccccc3)c2=O)c1O
-21%	CCCCc1ccc(NC(=S)NCc2cccs2)cc1
-16%	O=C(c1cc(C(F)(F)F)cc(C(F)(F)F)c1)N1CCC2(CC1)CN(c1ccccc1)C2
28µM*	Cc1ccccc1Nc1nnc(SCc2cc(=O)n3ccsc3n2)s1
-11%	COc1ccc(C(=O)CSc2n[nH]c(N)n2)cc1
2%	Cc1ccc(CNC(=O)CCNC(=O)c2ccco2)cc1
-11%	Cc1ccc(N(CC(=O)Nc2ccc(C)cc2C)S(=O)(=O)N2CCCC2)cc1
-29%	CC(=O)Oc1ccccc1/C=C1\CCOC1=O
-13%	COc1ccc(C(C)=O)cc1COC(=O)CNC(=O)c1cc(C)cc(C)c1
-8%	CC(=N\O)/C(CN(C)C)=N/O
-3%	CCc1c(O)nc(N2CCN(Cc3ccccc3)CC2)[nH]c1=O
-12%	Cc1nc(N2CCOCC2)nc(OCCN(C)C)c1[N+](=O)[O-]
-20%	O=C(Cn1c(=O)oc2cc(S(=O)(=O)NCc3ccccc3)ccc21)NCc1ccco1
-3%	O=C(CC1C(=O)NCCN1C(=S)Nc1ccccc1)Nc1ccc2c(c1)OCCO2 (configuration not stated)
-3%	O=C(NCc1ccco1)/C(=C/c1cccnc1)NC(=O)c1ccco1
-12%	CCOc1ccc(/C=N/N2C(=O)C(CC(=O)Nc3ccc(F)cc3F)SC2=NC)cc1OC (configuration not stated)
-1%	Cc1c(/C=N/NC(=O)c2ccc3c(c2)OCO3)cnn1C
-4%	Cc1ccc(N2C(=O)CC(NNc3nc4ccccc4s3)C2=O)cc1C (configuration not stated)
-4%	CC1(OC(=O)C2CCCC2)C(=O)C=C2C=C(c3ccsc3)OC=C2C1=O (configuration not stated)
?	COc1ccccc1CNC(=O)C1CC(c2c(Cl)cccc2Cl)=NO1 (configuration not stated)
-10%	CC(C)(O)C#Cc1ccc(C(=O)NCc2ccccc2F)cc1

# Only part of the results is shown, so the mix of outcomes need not match the whole.
